Bioassay records as filed in PubChem.
LANA-H2A inh: blocks KSHV LANA binding to histone H2A/H2B; 0.6% of 320,000 active; Q9QR71; AID 2629; cell-free LANA-H2A/H2B peptide, fluorescence polarization; inhibition, % (no concentration beside the values); in the data active = inhibition mostly above about 10%, no sharp cut-off; inactive = mostly below about 6.7%;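 also: stock transfer was 7.5 nL into about 10 µL; 0% = median of vehicle wells and 100% = median of positive control wells; one replicate is shown; the record names a cut of 25% in any replicate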
Calb FLC: C. albicans growth modulation with fluconazole. C. albicans CaCi-2 (fluconazole-resistant clinical isolate) + fluconazole, Alamar Blue growth, 48 h. growth inhibition, % (concentration not given with the values). 0.57% of 300,000 active;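 active = most replicates above 75%; inconclusive = exactly half above 75%; inactive = most below 75%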;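 also: all wells also contain fluconazole at 8 µg/ml as a sub-toxic cotreatment; 0% = median of DMSO wells and 100% = median of geldanamycin control wells; wells of about 8 µL received 7.5 nL stock; the first replicate is given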
RanGTP-Impb inh: inhibitors of RanGTP-importin-beta interaction, primary screen, biochemical, FRET, CFP-Ran, YFP-importin-beta, homogeneous; inhibition, % (test concentration not listed); 1.1% of 300,000 active; cell-free CFP-Ran/YFP-importin-beta FRET ratio; AID 2216;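 active = most replicates above 15%; inconclusive = exactly half above 15%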;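 also: 0% = DMSO wells and 100% = Ran loaded with GDP instead of GTP; wells of about 40 µL received 100 nL stock; the first replicate is given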
T cruzi inh: blocks replication of Trypanosoma cruzi | 1.4% of 300,000 active | AID 1885 | T. cruzi beta-gal in NIH3T3, luminescence, 90 h | inhibition, % (test concentration not listed);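 active = mean inhibition across valid replicates above about 55%, limit read from the data; inconclusive = mean below that limit but half or more replicates reach it; inactive = mean below it, under half of replicates reach it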;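 also: signal also drops with host cell toxicity which is not excluded here; 0% = plate median of DMSO wells and 100% = zero luminescence signal; higher percent means less beta-gal luminescence so fewer parasites; stock transfer was 50 nL into about 50 µL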
Bfl-1 A1 inh: inhibitors of the anti-apoptotic protein A1, read as caspase activation; 0.066% of 330,000 active; caspase activation, % (no concentration beside the values); MEF A1-2A-BIM cells, Caspase-Glo 3/7 luminescence, 3 h; percent of clofoctol response, vehicle zero; AID 2462;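 active = over half of replicate activation scores above 10%, or exactly half above 10 with the replicate mean above 10; inconclusive = replicate mean below 10 yet half the replicates above 10; inactive = over half of replicates below 10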;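 also: wells of about 30 µL received 50 nL stock; many hits fall short of the cut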
UCH37 DUB inh: blocks the human deubiquitinase UCH37. inhibition, % (concentration not given with the values). AID 588478. purified proteasome/UCH37, Ub-AMC cleavage fluorescence. 0.33% of 330,000 active;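 active = mean of two replicates above 20%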;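 also: 0% = compound-free wells with enzyme and 100% = wells lacking proteasome; stock transfer was 100 nL into about 20 µL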
Target sequence (Q9Y5K5 whole entry, looked up): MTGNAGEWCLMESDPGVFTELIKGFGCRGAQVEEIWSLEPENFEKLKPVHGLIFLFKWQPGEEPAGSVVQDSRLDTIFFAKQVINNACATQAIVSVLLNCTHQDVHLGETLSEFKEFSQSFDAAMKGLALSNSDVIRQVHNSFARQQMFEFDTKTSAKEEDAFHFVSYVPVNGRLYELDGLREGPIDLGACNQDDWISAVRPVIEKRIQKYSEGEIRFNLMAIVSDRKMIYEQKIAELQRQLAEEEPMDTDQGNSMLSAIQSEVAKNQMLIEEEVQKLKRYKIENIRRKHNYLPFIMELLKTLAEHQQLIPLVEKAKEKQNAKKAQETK
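Material: Human UCH37 enzyme supplied as purified proteasome complex | Schedule: 30 min compound-proteasome preincubation then 25 min substrate reaction, room temperature | Detection: AMC fluorescence from Ub-AMC cleavage, excitation 355 nm, emission 460 nm | Benchmarks: Wells without proteasome as full block, compound-free enzyme plus substrate as uninhibited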
Beta cell apopt: blocks beta cell apoptosis | 0.8% of 300,000 active | INS-1E cytokine-induced death, ATP luminescence, 48 h; percent of positive-control rescue, neutral wells zero | protection from apoptosis, % (test concentration not listed) | AID 435005;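 active = all replicates at 75% or more, or half of them and the mean; inconclusive = half reach 75% but not the mean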;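 also: 0% = cytokine-treated negative control wells and 100% = positive control rescue; higher means more ATP so stronger rescue from cytokine killing; wells of about 40 µL received 100 nL stock; the first replicate is given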
Beta2AR agonist: human beta-2 adrenergic receptor agonism by FAP | P07550 | Am2.2-beta2AR cells, FAP receptor internalization, flow cytometry; reference of the scale not given here | response, % (test concentration not listed) | 0.43% of 340,000 active;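 active = response above a set limit, near 3 SD of response in nonfluorescent compounds, cut at about 42% in these data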;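 also: stock transfer was 100 nL into about 11 µL; a reference agonist was the positive control; negative values mostly stem from fluorescent compounds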
Target sequence (P07550 whole entry, looked up): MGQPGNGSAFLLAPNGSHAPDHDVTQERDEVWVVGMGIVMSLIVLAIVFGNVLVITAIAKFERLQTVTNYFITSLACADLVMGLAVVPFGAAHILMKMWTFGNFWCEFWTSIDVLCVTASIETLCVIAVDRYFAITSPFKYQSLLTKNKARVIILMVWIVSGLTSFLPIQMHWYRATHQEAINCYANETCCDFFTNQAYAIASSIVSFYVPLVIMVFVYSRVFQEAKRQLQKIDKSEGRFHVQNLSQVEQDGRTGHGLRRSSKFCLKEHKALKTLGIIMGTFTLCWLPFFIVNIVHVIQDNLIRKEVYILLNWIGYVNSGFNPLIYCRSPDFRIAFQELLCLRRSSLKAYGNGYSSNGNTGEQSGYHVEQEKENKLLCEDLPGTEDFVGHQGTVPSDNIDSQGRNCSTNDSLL
* hit, by the source's call; ? = inconclusive; . = not tested or not shown.

SMILES	LANA-H2A inh	Calb FLC	RanGTP-Impb inh	T cruzi inh	Bfl-1 A1 inh	UCH37 DUB inh	Beta cell apopt	Beta2AR agonist
CCc1ccc(-c2nc(CS(=O)CC(=O)NCCCN3CCC(C)CC3)c(C)o2)cc1 (configuration not stated)	4.8	-5	3.5	0	-1.8	2.1	.	10
CC(c1nnc(SCC(=O)NC(=O)NCc2ccco2)n1-c1ccc(Cl)cc1)N(C)C (configuration not stated)	1.2	?	3.6	9	-0.6	3.5	-4	-6
O=C(CN(c1cc(C(F)(F)F)ccc1Cl)S(=O)(=O)c1ccccc1)NCc1cccnc1	-0.9	-2	?	14	-0.8	0.7	.	11
C=CCOc1ccccc1CN(CCc1ccccc1)C(=O)c1cccc(S(C)(=O)=O)c1	6.1	5	12	19	-0.2	0.1	-7	1
Cc1c(OC(C)C(=O)NCCCn2ccnc2)ccc2c3c(c(=O)oc12)CCC3 (configuration not stated)	2.6	9	5.9	9	-0.6	-58	1	-5
Cn1c2ccc(F)cc2c2ncn(CCN3CCOCC3)c(=O)c21	2.6	3	-0.5	-6	0.2	-20	5	-14
O=C(Cn1cnc2cc([N+](=O)[O-])ccc2c1=O)Nc1ccccc1Cl	3.6	7	-2.1	30	0.8	-0.8	-2	-12
COc1ccc(OC)c(C(=O)CN2CCN(S(=O)(=O)c3ccc(Br)cc3)CC2)c1	4.3	7	3.9	8	0.6	0.4	-4	-10
CCOc1ccc(C(=O)Nc2ccc(N3CCN(C(C)=O)CC3)cc2)cc1[N+](=O)[O-]	18*	?	3.4	-3	1.4	2.0	-3	-16
Cc1noc(C)c1C(=O)OCC(=O)Nc1cccc(S(=O)(=O)N(C)C)c1	2.4	-23	-0.8	-13	-3.5	3.5	6	31
CCC(CC)c1nnc(NC(=O)c2cccnc2SC)s1	0.2	-12	6.0	-7	-0.1	6.1	-3	1
CC(C)Cn1[nH]c2c3c(ccc2c1=O)C(=O)c1ccccc1C3=O	-5.5	0	8.6	-2	0.5	-3.4	69	-1
COc1ccc(NC(=O)c2cc(S(=O)(=O)N3CCCCC3)c[nH]2)cc1Cl	2.3	-7	0.4	-5	0.7	0.3	-11	2
CCN(CC(=O)Nc1c(F)cccc1F)C(=O)Cn1c(=O)cnc2ccccc21	-14	.	.	.	0.0	1.1	-3	-12
CN(Cc1c(C(=O)N/N=C/c2ccccc2F)nnn1-c1nonc1N)c1ccccc1	7.8	.	1.6	3	0.0	.	-11	6
Cc1cc(C)nc(-n2nc(C)cc2NC(=O)CNC(C)c2ccccc2)n1 (configuration not stated)	2.4	21	2.3	6	0.6	1.8	1	-10
Cc1ccccc1OCCC(=O)N(Cc1ccccc1)c1c(N)n(Cc2ccccc2)c(=O)[nH]c1=O	-10.0	6	-1.8	2	-0.2	2.6	-2	3
COc1ccc(NC(=O)CSc2nnc(NC(C)=O)s2)c([N+](=O)[O-])c1	3.4	-11	0.6	3	0.6	2.5	3	4
O=[N+]([O-])c1cccc(-c2nn(-c3ccccc3)cc2CO)c1	0.6	-6	0.9	-10	0.5	3.2	-3	-4
CCCCn1c(N)c(N(CCC(C)C)C(=O)C2CC(=O)N(Cc3ccc(C)cc3)C2)c(=O)[nH]c1=O (configuration not stated)	1.3	9	6.2	-2	0.6	1.8	1	2
COc1cccc(C(=O)Nc2cc(=O)n(C)c(=O)n2C)c1	-0.1	-9	-0.6	1	0.3	6.5	-3	-1
O=C(Cc1ccc(Cl)cc1)Nc1ccc(CN2CCCCC2)cc1	0.7	2	1.2	34	-1.0	5.4	-5	-6
COc1ccc(N2CCN(C(=O)CNS(=O)(=O)c3ccc(Br)s3)CC2)cc1	6.6	-3	-0.6	-5	0.4	1.0	1	1
Cc1nnc(N2C(=O)C(=O)/C(=C(\O)c3ccc4c(c3)CC(C)O4)C2c2ccccc2)s1 (configuration not stated)	5.0	0	-0.4	-11	1.0	.	.	3
Fc1ccccc1COc1ccc(Br)cc1CNCC1CCCO1 (configuration not stated)	6.3	-34	4.1	13	-0.4	4.3	2	1
O=C(Nc1ccccc1)C1C2CCC3C(CCC21)C3(Cl)Cl (configuration not stated)	2.9	-7	6.2	15	-0.4	-5.3	-12	-4
C[C@]12CCC(=O)C=C1CC[C@@H]1[C@@H]2[C@@H](O)C[C@]2(C=O)[C@@H](C(=O)CO)CC[C@@H]12	6.2	-11	0.7	-7	0.2	0.5	-3	8
CC(=O)N1CCN(CC(O)Cn2c3ccccc3c3ccccc32)CC1 (configuration not stated)	-0.8	9	-4.3	8	0.6	2.1	1	7
Cc1ccc(S(=O)(=O)Nc2ccc(Br)cc2C(NCC(=O)O)c2ccccc2)cc1 (configuration not stated)	7.4	-2	-1.1	-12	-0.7	1.2	-14	-12
O=C(CC1SC(=O)N(Cc2cccc3ccccc23)C1=O)Nc1nccs1 (configuration not stated)	-0.9	-6	-1.6	3	-0.6	1.6	.	7
CCCn1ncc(CN2CCC(CO)(Cc3ccc(OC)cc3)CC2)c1C	-13	?	-0.1	33	-0.6	0.4	-2	12
Cc1oncc1C(=O)NC1CCCCC1	-5.4	-6	-2.8	-11	-0.3	0.6	-9	4
CCN1CCN(C(c2cccs2)C(C)NS(=O)(=O)c2ccc(C)cc2)CC1 (configuration not stated)	-0.2	-7	-0.2	4	0.3	5.3	-1	-10
COCCNC(=O)CN(C(=O)CCC(=O)Nc1ccccn1)c1ccc(C)cc1	5.9	-6	-3.8	-5	0.7	6.1	.	4
O=C(CSc1nccc(=O)[nH]1)Nc1cccc(S(=O)(=O)N2CCOCC2)c1	1.3	-9	5.4	-1	1.0	5.3	-10	-5
CCOC(=O)N1CCN(C(=O)c2cc(COc3cccc(C(F)(F)F)c3)on2)CC1	2.3	7	3.2	1	0.4	-2.8	.	-20
COc1ccc(CNC(=O)C(C)N(Cc2ccco2)C(=O)c2snc(C(N)=O)c2N)cc1 (configuration not stated)	0.0	2	-2.0	16	0.6	-38	-4	5
CN(c1ccc(C(=O)NCCSCc2ccc(Cl)cc2)cc1)S(=O)(=O)c1ccccc1	0.1	-31	0.3	20	-0.1	0.8	-2	-10
O=C(CNC(=O)c1ccc(Br)cc1)OCc1cc([N+](=O)[O-])cc2c1OCOC2	-1.0	2	-2.4	1	-0.1	2.5	-9	11
CN(C)S(=O)(=O)c1ccc(C(=O)NCCS(=O)(=O)N2CCN(c3ccc(F)cc3)CC2)cc1	-1.7	-3	2.0	-5	-0.2	0.8	5	-1
Fc1ccc(C(CCCn2nnc(-c3cccnc3)n2)c2ccc(F)cc2)cc1	-1.1	24	1.8	62*	-0.5	2.4	15	-3
COc1ccc(/C=N/n2c(-c3ccc(C)cc3)n[nH]c2=S)cc1OC	-5.1	-3	4.0	-5	-0.3	.	-2	17
O=[N+]([O-])c1cc(S(=O)(=O)Nc2ccccc2)ccc1-n1nnc2ccccc21	-4.0	14	1.8	9	-1.0	2.2	-1	10
COc1ccc(/C=N/NC(=O)CCn2nc(C)cc2C)cc1	2.1	5	2.6	-12	2.5	.	-7	-4
Cc1c(C(=O)NCc2ccccn2)oc2ccc(S(=O)(=O)N3CCOCC3)cc12	-2.2	-9	3.7	-9	0.3	0.8	.	-2
CCCOc1ccc(-c2c(C(=O)N/N=C/C3CC=CCC3)nnn2-c2nonc2N)cc1 (configuration not stated)	-0.9	23	-1.4	18	-1.8	.	-7	-6
Cc1cc(Nc2ccc(N(C)C)cc2)n2ncnc2n1	-1.5	-1	-3.1	-8	0.6	4.7	-10	3
c1ccc(-c2nnc3sc(Cc4cccs4)nn23)cc1	-1.6	55	1.6	-1	0.1	-1.5	-6	-11
COC(=O)CN1C(=O)[C@@H]2[C@H](C1=O)[C@@H]1CC(C(=O)OC)=C[C@@H](C(=O)OC)[C@@H]3C1=C(C(=O)[C@@]3(C)NC(=O)c1ccccc1)[C@@H]2C	6.8	-3	-3.8	-17	-0.6	4.9	0	1
CC(C)(C)NC(=O)C1Cc2ccccc2CN1 (configuration not stated)	-2.1	-4	0.2	-2	0.1	0.6	-2	11
Nc1cc(N)nc(SCC(=O)NCc2ccco2)n1	12	-1	1.2	-9	0.8	3.6	-7	-3
COc1ccc(S(=O)(=O)NC(C)C)cc1C(=O)NC1CCCCC1	3.7	-3	0.3	17	0.0	3.0	4	4
Cc1cc(C)nc(SCC(=O)N/N=C/c2cccs2)n1	4.4	-3	-1.2	9	0.4	.	0	1
COc1cccc(-c2csc(NC(=O)Oc3ccccc3)n2)c1	-1.4	-6	-1.1	-4	0.4	1.2	-3	2
COc1ccc(NC2CC(=O)N(C)C2=O)cc1 (configuration not stated)	0.7	-6	?	-10	0.0	1.2	1	2
O=C(CSc1nnc(CNC(=O)c2c(F)cccc2Cl)o1)Nc1ccc2c(c1)OCCO2	0.9	3	0.1	-15	0.6	0.0	3	-7
CCOC(=O)c1cc2c(nc1N)CC(C)(C)OC2	-0.8	-5	3.5	-16	-0.2	-106	3	-4
CN(/N=C/c1ccncc1)C1=NS(=O)(=O)c2ccccc21	3.8	-5	?	-4	0.3	.	5	1
Cc1nc(C)c2c(=O)cc(-c3ccccc3)[nH]c2n1	-0.9	44	-2.5	-43	-0.4	-6.5	1	-20
CCN(CC)CCOC(=O)c1ccc(NC(=O)C(C)NC(=O)C23CC4CC(CC(C4)C2)C3)cc1 (configuration not stated)	-4.6	-3	2.7	14	1.3	5.4	-4	6
Additional compounds follow.
SMILES	LANA-H2A inh	Calb FLC	RanGTP-Impb inh	T cruzi inh	Bfl-1 A1 inh	UCH37 DUB inh	Beta cell apopt	Beta2AR agonist
CCn1cc(S(=O)(=O)Nc2nc3ccc(OC)cc3s2)cn1	0.7	-11	-4.6	-9	0.3	0.1	-4	4
CC(CCc1ccccc1)NC(=O)/C=C/c1ccccc1 (configuration not stated)	2.0	8	0.8	11	0.1	2.1	0	-10
CCOCCCNC(=S)N(CCCN(C)C)Cc1cc2cc3c(cc2[nH]c1=O)OCCO3	-6.0	2	1.0	-3	-0.2	-162	.	0
Cc1noc(C)c1S(=O)(=O)N(C)C[C@H]1Oc2ccc(NS(=O)(=O)c3cn(C)cn3)cc2C(=O)N([C@H](C)CO)C[C@@H]1C	-191	.	.	.	0.1	2.9	-7	5
Nc1ncnc2c1ncn2CCc1ccccc1	7.3	-9	?	-7	0.2	3.2	-9	5
Cn1cnc(S(=O)(=O)Nc2ccccc2N2CCOCC2)c1	2.1	6	-1.5	-13	1.8	3.0	3	-3
CCCn1c(C2CC(=O)N(c3ccc(C)cc3)C2)nc2ccccc21 (configuration not stated)	-2.9	-6	-1.6	7	0.8	2.0	3	-11
C=CCN1C(=O)c2ccc(C(=O)N3CCN(S(=O)(=O)c4ccccc4Br)CC3)cc2C1=O	2.8	.	3.0	-1	0.5	-1.0	4	-1

Laid out differently: two of the compounds above.
smiles,LANA-H2A inh,Calb FLC,RanGTP-Impb inh,T cruzi inh,Bfl-1 A1 inh,UCH37 DUB inh,Beta cell apopt,Beta2AR agonist
CC(CCc1ccccc1)NC(=O)/C=C/c1ccccc1 (configuration not stated),2.0,8,0.8,11,0.1,2.1,0,-10
CCOCCCNC(=S)N(CCCN(C)C)Cc1cc2cc3c(cc2[nH]c1=O)OCCO3,-6.0,2,1.0,-3,-0.2,-162,.,0

Rows were taken by chance. Share with any hit: about 4.3%.
